Screening results (PubChem BioAssay)
V1aR counter: counter-screen for oxytocin receptor agonists: human V1a receptor agonists. P37288. CHO-V1R cells, Fluo-8 calcium fluorescence, agonist mode; 0% DMSO, 100% 3 nM vasopressin. activation, % at 3 µM. hit rate 0.25% among 320,000. AID 2797;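 active means activation above the mean activation of all tested compounds plus 3 SD, per screening run, cut at about 20% in these data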;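 further: signal is peak over basal fluorescence ratio across a 100 second FLIPR read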
Target sequence (P37288 whole entry, looked up): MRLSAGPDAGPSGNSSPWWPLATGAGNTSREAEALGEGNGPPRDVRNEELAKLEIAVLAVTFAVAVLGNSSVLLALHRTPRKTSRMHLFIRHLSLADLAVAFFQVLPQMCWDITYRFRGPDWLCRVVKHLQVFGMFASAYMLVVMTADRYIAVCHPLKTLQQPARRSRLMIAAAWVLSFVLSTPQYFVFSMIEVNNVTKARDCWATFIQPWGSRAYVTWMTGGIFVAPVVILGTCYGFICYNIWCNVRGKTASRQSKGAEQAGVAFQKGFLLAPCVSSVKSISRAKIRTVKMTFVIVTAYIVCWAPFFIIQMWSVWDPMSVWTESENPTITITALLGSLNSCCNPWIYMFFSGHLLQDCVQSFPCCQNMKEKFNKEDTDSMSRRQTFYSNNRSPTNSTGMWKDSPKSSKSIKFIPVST
OXTR potentiate: potentiators of human oxytocin receptor; activation, % at 3 µM; CHO-OTR cells, Fluo-8 calcium fluorescence, potentiator mode; 0% = oxytocin EC15, 100% = EC100; P30559; hit rate 0.061% among 320,000; AID 2445;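 active means activation above that plate's cutoff, the mean activation of tested compounds plus 3 SD, cut at about 6.6% in these data, passing the limit was not always enough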;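 further: 100% uses oxytocin at 75 nM as the full agonist control; some results filed as inactive read as strong as hits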
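Assay system: CHO cell line stably expressing human OTR | Also added: Oxytocin at about EC15, sub-maximal agonist stimulus | Times: Compound 6 min at room temperature before oxytocin, 100 s read | Measured by: Fluo-8 intracellular calcium fluorescence, ex 470-495, em 515-575 nm | Controls: EC15 oxytocin alone as 0%, 75 nM oxytocin as 100%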
CHRM1 antagonist: blocks human M1 muscarinic receptor; hit rate 1.3% among 360,000; CHO-K1 hM1, Fluo-8 calcium fluorescence, ACh EC80 antagonist; inhibition, % at 3 µM; P11229;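 active means percent inhibition above its own plate's cutoff, namely the mean of that plate's compound wells plus 3 SD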;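 further: peak over basal fluorescence ratio during 140 s after agonist addition; 0% = ACh EC80 plus DMSO and 100% = DMSO alone without agonist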
OXTR ag: activates the human oxytocin receptor; hit rate 0.32% among 320,000; AID 2435; P30559; CHO-OTR cells, Fluo-8 calcium fluorescence; normalized: DMSO 0%, oxytocin 100%; activation, % at 3 µM;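 active means activation above the mean of all tested compounds plus 3 SD, cutoff set per screening run, cut at about 20% in these data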;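 further: peak over basal fluorescence ratio from a 100 s FLIPR kinetic read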
CHRM1 PAM: positive allosteric modulators of human M1 muscarinic receptor; P11229; CHO-K1 hM1, Fluo-8 calcium fluorescence, ACh EC20; 0% = ACh EC20, 100% = maximal ACh; activation, % at 3 µM; hit rate 0.088% among 360,000; in the data active means activation above about 19%, passing the limit was not always enough
CHRM1 agonist: human M1 muscarinic receptor agonism; CHO-K1 hM1, Fluo-8 calcium fluorescence, agonist mode; 0% DMSO, 100% acetylcholine EC100; activation, % at 3 µM; hit rate 0.33% among 360,000;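 active means activation above the run's mean compound activation plus 3 SD, cut at about 16% in these data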;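 further: peak over basal fluorescence ratio within a 140 s kinetic read after compound addition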
* hit, by the source's call; / = no result given. Some of the compounds tested; rates above refer to the full screens.

Letters: A = V1aR counter; B = OXTR potentiate; C = CHRM1 antagonist; D = OXTR ag; E = CHRM1 PAM; F = CHRM1 agonist
Cn1ncc(Cl)c1C(=O)N1CCN(c2ccc(Cl)c(Cl)c2)CC1
  A = 13 | B = -16 | C = 21 | D = 15 | E = -3 | F = 5

CCOC(=O)c1ccc2[nH]c3ccccc3c2c1
  A = -0.2 | B = -2 | C = -3 | D = -2.3 | E = -7 | F = -12

O=C(COc1ccc(F)cc1Cl)Nc1nc(-c2ccccn2)cs1
  A = 2.0 | B = 0 | C = -3 | D = 0.5 | E = 0 | F = -4

O=C(CSc1n[nH]c(-c2ccccc2)n1)NC(=O)NCc1ccco1
  A = -1.0 | B = -10 | C = -13 | D = 0.1 | E = 6 | F = -7

CCOCCOc1cccc(C(=O)NC(c2ccccc2)c2ccccc2)c1
  A = 6.1 | B = -4 | C = -17 | D = -0.8 | E = 9 | F = -4

O=C(c1nc2ccccn2c1CNCC1OCCc2ccccc21)N1CCOCC1 (stereo not given)
  A = 0.5 | B = -4 | C = 2 | D = 0.0 | E = -2 | F = -9

Cc1nc2ccccc2n1Cc1ccc(Br)cc1
  A = 9.1 | B = -20 | C = 37 | D = 12 | E = -11 | F = 0

CC(C)N(Cc1cnn(C)c1)Cc1nc(Cc2ccccc2Cl)no1
  A = 0.2 | B = -17 | C = -1 | D = 0.5 | E = 2 | F = -2

Cc1ccc(S(=O)(=O)Nc2cccc3ncccc23)s1
  A = 1.1 | B = -2 | C = 12 | D = 0.0 | E = 4 | F = -5

O=C(CNC(=O)c1ccccc1Cl)N/N=C/C=C/c1ccccc1
  A = 0.5 | B = -12 | C = -11 | D = -0.5 | E = 12 | F = -4

CCCn1c(N)c(C(=O)CSc2nnc(-c3cccs3)n2C2CC2)c(=O)[nH]c1=O
  A = 1.7 | B = 4 | C = -11 | D = 0.3 | E = 4 | F = -7

Cc1ccc(O)c(NC(=O)c2noc3c2CCCCC3)c1
  A = -0.5 | B = -10 | C = -3 | D = -0.2 | E = 12 | F = -10

Cc1ccc(S(=O)(=O)N2CCCN(C(=O)c3cc4ccccc4[nH]3)CC2)cc1
  A = 3.4 | B = -24 | C = -19 | D = 0.9 | E = 8 | F = -5

CCOC(=O)c1c(-c2ccccc2)csc1NC(=O)c1nn(CC)cc1Br
  A = 1.2 | B = -4 | C = 4 | D = 0.7 | E = -5 | F = -3

CCCCCCCCCn1c2c(c(=N)c3c1CCC3)CCC2
  A = 12 | B = -21 | C = 31* | D = -0.3 | E = -9 | F = -1

O=C(O)C1C2CCC(C2)C1C(=O)NCCc1ccccc1 (stereo not given)
  A = 0.7 | B = -6 | C = -7 | D = -0.4 | E = 1 | F = -3

CC(C)(C)NC(=O)COC(=O)c1ccccc1Nc1ccc(SC(F)F)cc1
  A = 0.6 | B = -4 | C = 6 | D = 1.2 | E = -13 | F = -2

CN(CC(=O)Nc1ccccc1Cl)C(=O)CCNC(=O)Nc1ccccc1
  A = -0.2 | B = -10 | C = -1 | D = 0.9 | E = 1 | F = -5

Cc1cc(Cl)nc(Cl)c1C(=O)NCCc1ccccc1
  A = 0.1 | B = -4 | C = -5 | D = 3.1 | E = 3 | F = -4

O=C(NCCN1CCOCC1)c1csc2c1CCCCC2
  A = -1.0 | B = 1 | C = -30 | D = 1.2 | E = 3 | F = 5

O=C(Nc1nc(-c2ccc(F)cc2)cs1)C1CCN(C(=O)c2ccc(F)cc2)CC1
  A = 7.8 | B = -15 | C = 15 | D = 6.3 | E = -7 | F = -2

CC(=O)c1cccc(NS(=O)(=O)c2ccc(N/C=C/C(=O)c3ccc(F)cc3)cc2)c1
  A = 6.5 | B = -8 | C = 24 | D = 11 | E = -11 | F = -3

O=C(N/N=C\c1ccc(Sc2ccccn2)o1)c1cccc(F)c1
  A = 0.9 | B = -6 | C = -8 | D = -0.3 | E = 9 | F = -2

Cc1cc(/C=C(\C#N)C(=O)NC2CCCCCC2)c(C)n1C
  A = -0.2 | B = -3 | C = 1 | D = -0.7 | E = 7 | F = -3

NCc1c(O)ccc2ccccc12
  A = 0.5 | B = -4 | C = / | D = 0.7 | E = / | F = /

COc1ccc(S(=O)(=O)n2c(C)nc3ccccc32)cc1C
  A = 0.4 | B = 4 | C = -15 | D = 1.9 | E = 4 | F = 0

O=C(NCCS(=O)(=O)NCCc1ccccc1)c1ccc2c(c1)OCO2
  A = 0.1 | B = 0 | C = -6 | D = -1.0 | E = 18 | F = 2

Cc1ccc(C(=O)Nc2ccc(N3CCN(S(C)(=O)=O)CC3)cc2)cc1C
  A = 1.0 | B = -7 | C = 0 | D = 0.7 | E = 8 | F = -5

O=C(NCCC1=CCCCC1)Nc1ccc2nsnc2c1
  A = 7.1 | B = -24 | C = 12 | D = 4.6 | E = -16 | F = -5

CCOc1ccccc1C(=O)NCCCCNC(=O)c1ccccc1OCC
  A = 1.1 | B = -6 | C = 2 | D = -2.2 | E = -9 | F = 0

Cc1ccc(-c2cc(C(=O)N/N=C/C(Br)=C/c3ccccc3)n[nH]2)o1
  A = 0.4 | B = -6 | C = -4 | D = -0.6 | E = 12 | F = 0

O=C(NCCc1ccccc1)Oc1ccc(Cl)cc1
  A = 1.6 | B = -5 | C = -10 | D = 1.1 | E = 4 | F = -2

Among those listed so far, these contain four or more nitrogen atoms.
Letters: A = V1aR counter; B = OXTR potentiate; C = CHRM1 antagonist; D = OXTR ag; E = CHRM1 PAM; F = CHRM1 agonist
Cn1ncc(Cl)c1C(=O)N1CCN(c2ccc(Cl)c(Cl)c2)CC1
  A = 13 | B = -16 | C = 21 | D = 15 | E = -3 | F = 5

O=C(CSc1n[nH]c(-c2ccccc2)n1)NC(=O)NCc1ccco1
  A = -1.0 | B = -10 | C = -13 | D = 0.1 | E = 6 | F = -7

O=C(c1nc2ccccn2c1CNCC1OCCc2ccccc21)N1CCOCC1 (stereo not given)
  A = 0.5 | B = -4 | C = 2 | D = 0.0 | E = -2 | F = -9

CC(C)N(Cc1cnn(C)c1)Cc1nc(Cc2ccccc2Cl)no1
  A = 0.2 | B = -17 | C = -1 | D = 0.5 | E = 2 | F = -2

CCCn1c(N)c(C(=O)CSc2nnc(-c3cccs3)n2C2CC2)c(=O)[nH]c1=O
  A = 1.7 | B = 4 | C = -11 | D = 0.3 | E = 4 | F = -7

CN(CC(=O)Nc1ccccc1Cl)C(=O)CCNC(=O)Nc1ccccc1
  A = -0.2 | B = -10 | C = -1 | D = 0.9 | E = 1 | F = -5

O=C(NCCC1=CCCCC1)Nc1ccc2nsnc2c1
  A = 7.1 | B = -24 | C = 12 | D = 4.6 | E = -16 | F = -5

Cc1ccc(-c2cc(C(=O)N/N=C/C(Br)=C/c3ccccc3)n[nH]2)o1
  A = 0.4 | B = -6 | C = -4 | D = -0.6 | E = 12 | F = 0
